Lassa entry: qHTS for Inhibitors of binding or entry into cells for Lassa Virus; Lassa virus pseudotyped entry inhibition, cell-based qHTS; control for the full effect not named in the record; many of its hits are not listed in these tables; Potency, µM (titrated, usually from 49.2 µM), for the others: at the top dose activity change, negative = inhibition, usual class: inhibitors; 18,000 compounds, 4.1% hits; AID 720533, 2013; active = well fitted inhibition curve with a large enough effect; inconclusive = small, poorly fitted or top-dose-only effect; inactive = no such curve, though single readings can be large or run the other way; tested in HEK293 cells; note: luciferase read-out
MARV entry inh: qHTS for Inhibitors of binding or entry into cells for Marburg Virus; Marburg virus pseudotype entry/binding inhibition, cell-based; control for the full effect not named in the record; many of its hits are not listed in these tables; Potency, µM (highest dose often 49.2 µM), without a hit: top-dose activity change, negative = inhibition, hits mostly inhibitors; 18,000 compounds, 6.5% hits; AID 720532, 2013; active means well fitted inhibition curve with a large enough effect; inconclusive means small, poorly fitted or top-dose-only effect; inactive means no such curve, though single readings can be large or run the other way; tested in HEK293 cells; note: luciferase read-out
Active calls of the source: *; u = inconclusive; x = no result given; & = joins results of further samples; ! = a repeat was not active; [ ] = another dose, or the depositor's remark. % is set by controls: 0 for no effect and ±100 for the full control effect; potency is the fitted concentration of half-maximal effect.

SMILES | Lassa entry | MARV entry inh
CC1(C)CC[C@]2(C(=O)O)CC[C@@]3(C)C(=CCC4[C@@]5(C)CCC(O)C(C)(C)C5CC[C@@]43C)C2C1 (stereo partly specified) | 3% | 1%
COc1ccc(-c2oc3cc(OC)c(OC(C)=O)c(OC)c3c(=O)c2OC)cc1OC(C)=O | 0.32µM* | 1%
CCCC(CCC)C(N)=O | -17% | 15%
Cc1ccc([C@H]2C[C@@H](O)[C@H](n3cc(C4CC4)nn3)CN2Cc2cccs2)cc1 | x | -17%
CSc1ccc(C(=O)N2CCc3c(cnc(C)c3CNC(=O)c3cncs3)C2)cc1 | u | -4%
CSc1ncccc1C(=O)NCC1Cc2cc(F)cc(-c3cncnc3)c2O1 (stereo unspecified) | -1% | -23%
COC(=O)c1c(OCc2ccccn2)cc(=O)n2c1CCN(Cc1cccc(C(F)(F)F)c1)CC2 | -15% | -4%
CN(C)CCN1CCN(C2CN(CCc3ccccc3)S(=O)(=O)C2)CC1 (stereo unspecified) | 16% | 18%
O=C(O)c1ccc(OCCn2ccnc2)cc1 | -2% | 20%
Cc1c(N)cccc1Cl | 6% | -6%
COc1cc(COc2cc(N)c(Cl)cc2C(=O)CCC2CCN(CCNS(C)(=O)=O)CC2)cc(OC)c1 | u | 7.9µM*
O=C(O)c1ccccc1-c1c2ccc(=O)cc-2oc2cc(O)ccc12 | 11% | -4%
CC[C@H](C)[C@H](NC(=O)[C@@H]1CCCN1C(=O)[C@H](Cc1cnc[nH]1)NC(=O)[C@@H](NC(=O)[C@H](Cc1ccc(O)cc1)NC(=O)[C@@H](NC(=O)[C@H](CCCN=C(N)N)NC(=O)CNC)C(C)C)[C@@H](C)CC)C(=O)O | -13% | 11%
Cc1ccc2cc3c(ccc4ccccc43)c3c2c1CC3 | -6% | 12%
Cc1c(C(=O)N2CCCC2)sc2ncnc(NCCc3ccccn3)c12 | -5% | 1%
Cc1c(C)c2c(c(C)c1O)CC[C@@](C)(CCC[C@@H](C)CCC[C@@H](C)CCCC(C)C)O2 | 6%[17.8 µM] | -7%[17.8 µM]
COC(=O)C1C[C@@]23C(=NN=C(SC)C2N(C)c2ccc(OC)cc23)N1C(C)=O (stereo partly specified) | x | -33%[8.59 µM]
CCC(/C=C/C(C)C1CCC2C3CCC4=CC(=O)CC[C@@]4(C)C3CC[C@@]12C)C(C)C (stereo partly specified) | 0% | -10%
CCCC(=O)O[C@@H]1[C@@H](C)[C@@]2(O)[C@@H](C=C(CO)C[C@@]3(O)C(=O)C(C)=C[C@@H]23)[C@@H]2C(C)(C)[C@]12OC(=O)CCC | -7% | -14%
COC(=O)Nc1nc2ccc(S(=O)(=O)c3ccc(NC(=O)Nc4cc(C(F)(F)F)ccc4F)cc3)cc2[nH]1 | -20% | -29%
COC(=O)CCCC1=CC2=CC(=O)C(C)(OC(=O)CCc3ccccc3)C(=O)C2=CO1 (stereo unspecified) | 7% | 5%
CCc1cc(OC)c(C[C@H](C)N)cc1OC | -13%[107 µM] | u
COc1cc2oc(=O)cc(-c3ccc(-c4ccc(C(F)(F)F)cc4)cc3)c2c(OC)c1OC | -2% | 29%
COc1ccc(-c2cc3c(c4c2ccn4C)C2CCC3O2)cc1OC (stereo unspecified) | -25% | 8%
CS(=O)(=O)NC(=O)CCC/C=C\C[C@H]1C(=O)C[C@@H](O)[C@@H]1/C=C/[C@H](O)COc1ccccc1 | -21% | 4%
N[C@H](CSC(c1ccccc1)(c1ccccc1)c1ccccc1)C(=O)O | -12% | -6%
CC[C@H](C)[C@@H](NC(=O)O[C@@H]1C(=O)c2ccc(OC)cc2O[C@H]1c1cccc(C(F)(F)F)c1)C(=O)OC | -2% | 3%
CCCCC/C=C\C/C=C\CCCCCCCC(N)=O | -5%&2%&-15% | 0%&-2%&-23%
O=C(O)Cc1ccc(OCCNC[C@H](O)c2ccccc2)cc1 | -1% | 13%
O=C1CCCC2=C1[C@H]1O[C@](c3ccsc3)(Cc3c1ccc1ccccc31)O2 | 2%[8.59 µM] | -14%[8.59 µM]
CCCCN1CC(N2CCCC2)CS1(=O)=O (stereo unspecified) | 6% | 22%
C=CCOC(=O)N[C@H](c1cccc(C(F)(F)F)c1)C(C(C)=O)C(C)=O | 7% | 19%
NS(=O)(=O)c1cc(C(=O)O)cc(N2CCCC2)c1Oc1ccccc1 | -6%[17.8 µM] | 2%[17.8 µM]
CC(C)C[C@@H](CC(=O)N[C@@H](CCC(=O)O)CC(=O)O)NC(=O)[C@@H]1CCCC[C@H]1NC(=O)C[C@H](CCCN)NC(=O)C[C@H](Cc1ccccc1)NC(=O)[C@@H]1CNCC[C@H]1N | 6% | 3%
O=C(Nc1ccccc1)OC[C@@H]1CSCCS(=O)(=O)N1 | 16% | 27%
COc1ccc2c(c1)CO[C@H]([C@H](O)COC(C)=O)[C@H]2C=Cc1ccccc1 | 0%[8.59 µM] | -2%[8.59 µM]
CCC(=O)N[C@@H]1Cc2ccccc2[C@@H](c2ccccc2)C1 | u | 23%
CCCCS(=O)(=O)N1C2=NC3=C(C(=O)N(CCOC)C3=O)C3N(C)c4ccccc4[C@]23C[C@H]1CO (stereo partly specified) | 13%[8.59 µM] | -13%[8.59 µM]
CCCN1CCCC(c2ccc(Nc3nc(Nc4cc(F)ccc4C(N)=O)c4cc[nH]c4n3)c(OC)c2)C1 (stereo unspecified) | u | 7.9µM*
NC(N)=NC(=O)c1nc(Cl)c(N2CCCCCC2)nc1N | 2% | 19%
NCCC[C@@H](CC(=O)N[C@@H]1CCNC[C@H]1C(=O)N[C@H](CC(=O)N[C@@H](CCC(=O)O)CC(=O)O)Cc1ccccc1)NC(=O)C[C@H](Cc1ccccc1)NC(=O)[C@@H]1CCCC[C@H]1N | -9% | -14%
C[C@@H]1CC2CCCC2[C@]2(O1)C(=O)Nc1ccccc12 (stereo partly specified) | 26%[8.59 µM] | -4%[8.59 µM]
O=c1c(O)c(-c2ccc(O)c(O)c2)oc2c(OC[C@@H]3O[C@@H](O)[C@@H](O)[C@H](O)[C@H]3O)c(O)cc(O)c12 | -1% | u
COC(=O)c1ccc(C(=O)N2CCc3c(C(=O)NC(C)c4ccco4)c(OC)cc(=O)n3CC2)cc1 (stereo unspecified) | 0% | 18%
CP(=O)(O)C1=CCNCC1 | 10% | 11%
COc1ccc([C@@H]2CC(=O)c3c(O)cc(O[C@@H]4O[C@H](CO)[C@@H](O)[C@H](O)[C@H]4OC4O[C@@H](C)[C@H](O)[C@@H](O)[C@H]4O)cc3O2)cc1O (stereo partly specified) | 10% | 2%
CC(C)[C@H](NC(=O)[C@@H](Cc1c[nH]c2ccccc12)NC(=O)[C@H](Cc1ccc(O)cc1)NC(=O)[C@@H](N)CC(=O)O)C(=O)N[C@H](Cc1c[nH]c2ccccc12)C(=O)N[C@H](Cc1c[nH]c2ccccc12)C(=O)N[C@@H](CCCCN)C(N)=O | -5% | -5%
NCCCCCCNS(=O)(=O)c1cccc2c(Cl)cccc12 | u | 18µM*!

An excerpt of these results, field by field:
NC(N)=NC(=O)c1nc(Cl)c(N2CCCCCC2)nc1N
  Lassa entry: 2%
  MARV entry inh: 19%

NCCC[C@@H](CC(=O)N[C@@H]1CCNC[C@H]1C(=O)N[C@H](CC(=O)N[C@@H](CCC(=O)O)CC(=O)O)Cc1ccccc1)NC(=O)C[C@H](Cc1ccccc1)NC(=O)[C@@H]1CCCC[C@H]1N
  Lassa entry: -9%
  MARV entry inh: -14%

C[C@@H]1CC2CCCC2[C@]2(O1)C(=O)Nc1ccccc12 (stereo partly specified)
  Lassa entry: 26%[8.59 µM]
  MARV entry inh: -4%[8.59 µM]

O=c1c(O)c(-c2ccc(O)c(O)c2)oc2c(OC[C@@H]3O[C@@H](O)[C@@H](O)[C@H](O)[C@H]3O)c(O)cc(O)c12
  Lassa entry: -1%
  MARV entry inh: u

New compounds follow:
SMILES | Lassa entry | MARV entry inh
Cc1ccc(C#C[C@@H]2C=C[C@H](Oc3ccc4c(c3)OCO4)[C@@H](CO)O2)c(C)c1 | 2%[8.59 µM] | 11%[8.59 µM]
CC1NC(C(=O)O)Cc2c1[nH]c1ccccc21 (stereo unspecified) | -2% | -7%
CC(C)c1c(C(=O)NCCN2CCOCC2)cnn1-c1nccc(-c2cccs2)n1 | -11% | -1%
COC(=O)[C@@H](N)CCCN/C(N)=N/[N+](=O)[O-] | -1% | 20%
C[N+](C)(C)CCC(=O)c1cccc2ccccc12 | -15% | u
COc1cc(-c2cc(=O)c3c(O)c(OC)c(OC)c(OC)c3o2)cc(OC)c1OC | 0% | 3%
COc1cc2c(cc1O)C(Cc1ccc(O)cc1)N(C)CC2 (stereo unspecified) | 0% | -12%
CCOc1nc2cccc(C(=O)O)c2n1Cc1ccc(-c2ccccc2-c2nn[nH]n2)cc1 | u | -4%
CN(C)/C=N/c1c(C#N)cnn1-c1ccc(F)c(Cl)c1 | -4% | 31%[activator]
CCOC(=O)[C@@]12C[C@@H]1/C(=N/O)c1ccccc1O2 | 2% | 3%
O=C(CC[N+](=O)[O-])OCC1OC(O)C(OC(=O)CC[N+](=O)[O-])[C@@H](OC(=O)CC[N+](=O)[O-])C1OC(=O)CC[N+](=O)[O-] (stereo partly specified) | -12% | 11%
COc1cc2cc[n+]3cc4c(OC)c(OC)ccc4cc3c2cc1OC | -4% | 10%
NC(N)=NOCCC(N)C(=O)O (stereo unspecified) | -5% | 0%
COc1ccc(O[C@@H]2[C@H](O)CO[C@@H]2C=CC#Cc2ccccc2)cc1 | -28%[8.59 µM] | 8%[8.59 µM]
CCOC(=O)C1OC1C(=O)NC(CC(C)C)C(=O)NCCC(C)C (stereo unspecified) | -3% | 3.5µM*
CC(=O)c1ccc(F)c(-c2cc(C)cc3c2OC(CNC(=O)Cn2nc(C)nc2C)C3)c1 (stereo unspecified) | 0% | -9%
COc1ccccc1N1CCN(Cc2cc(=O)oc3cc(C)ccc23)CC1 | 1% | 16%
Cc1c(C(=O)NCC2CCCN(C)C2)cnn1-c1ncc2c(n1)-c1ccccc1CCC2 (stereo unspecified) | -19% | -8%
CCN1C(=O)[C@@H]2[C@H]3[C@H](O)[C@H](O)CC(=NOC[C@@H](C)[C@H](OCc4ccccc4)C(C)C)[C@@H]3CC[C@H]2C1=O | x | 1%[8.59 µM]
Cc1c(C(=O)NC(C)(C)CO)sc2ncnc(NCCN(C)C)c12 | -18% | -7%
CCCCC(F)(F)[C@@]1(O)CC[C@H]2[C@@H](CC(=O)[C@@H]2CCCCCCC(=O)O)O1 | -16% | 3%
COc1ccccc1-c1ccnc(-n2ncc(C(=O)NC(c3cccnc3)C(F)(F)F)c2C)n1 (stereo unspecified) | u | u
CC(=O)NC1C(O)O[C@H](C(=O)O)[C@@H](O)[C@@H]1O (stereo partly specified) | 1% | 27%
COC(=O)/C(=C1\OC(=O)C(c2ccccc2)C1=O)c1ccccc1 (stereo unspecified) | 45%[activator] | 12%

As entered above:
`CC(C)[C@H](NC(=O)[C@@H](Cc1c[nH]c2ccccc12)NC(=O)[C@H](Cc1ccc(O)cc1)NC(=O)[C@@H](N)CC(=O)O)C(=O)N[C@H](Cc1c[nH]c2ccccc12)C(=O)N[C@H](Cc1c[nH]c2ccccc12)C(=O)N[C@@H](CCCCN)C(N)=O` | Lassa entry = -5%
`CC(C)c1c(C(=O)NCCN2CCOCC2)cnn1-c1nccc(-c2cccs2)n1` | MARV entry inh = -1%

Further entries follow:
SMILES | Lassa entry | MARV entry inh
CC1(OC(=O)c2ccc(Cl)nc2)C(=O)C=C2C=C(c3ccc(C#N)cc3)OC=C2C1=O (stereo unspecified) | 7%&0% | 56%&8%[activator]
Nc1nc2c(ncn2COC(CO)CO)c(=O)[nH]1 | 6%[17.8 µM] | 16%[17.8 µM]
COCOc1ccccc1C(=O)/C=C/c1ccccc1 | -6% | -6%
COC(=O)NC(c1ccc2c(c1)OCO2)C(C(=O)OC)C(=O)OC (stereo unspecified) | u | 20%
C/C=C1/C[N@@+]2(C)CC[C@]34C(=C(C=O)[C@H]1C[C@H]32)Nc1ccccc14 | 3% | 4%
CC(=O)N1CCN(c2nc3cc(C)ccc3cc2CN(C(=O)c2cccc3ccccc23)C2CC2)CC1 | -21% | -8%
CC(O)[C@H]1CC[C@H]2[C@@H]3CC[C@@H]4C[C@@H](O)CC[C@]4(C)[C@H]3CC[C@]12C (stereo partly specified) | -3% | 7%
CCCCCCCC/C=C\CCCCCCCC(=O)OCC(CO)OC(=O)CCCCCCC/C=C\CCCCCCCC (stereo unspecified) | 3%&-16% | 6%&-11%
CN(C)CCCSC(=N)N | -1% | 14µM*!
CCC1OC2(C)C(O)C(/C=C/C=C/C=C/c3oc(=O)cc(OC)c3C)OC1(C)C2OC(C)=O (stereo unspecified) | u | u
O=C(OC1Cc2c(O)cc(O)cc2OC1c1cc(O)c(O)c(O)c1-c1c(C2Oc3cc(O)cc(O)c3CC2OC(=O)c2cc(O)c(O)c(O)c2)cc(O)c(O)c1O)c1cc(O)c(O)c(O)c1 (stereo unspecified) | -2% | 11µM*
OCC1OC(n2cnc3c(Cl)ncnc32)C(O)C1O (stereo unspecified) | -27% | u
C=CCOC(=O)N[C@@H](c1cccc(OC)c1)[C@@H](C)C=CCC(=O)O | 14%[8.59 µM] | 7%[8.59 µM]
CCc1cccc(C)c1N(C(=O)CCl)C(C)COC (stereo unspecified) | -13% | 12%
O=C(NCC1(N2CCCCC2)CCCC1)c1cnn(-c2nccc(-c3cccs3)n2)c1C1CC1 | 0% | 11%

Compound activity from PubChem.
